# NPYLR7 ag = mosquito NPYLR7 agonism; HEK293T NPYLR7/Galpha15, GCaMP6s calcium fluorescence; activation, % at 10 µM; hit rate 0.15% among 270,000; AID 1259423; in the data active = activation above about 40%;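 also: 0% = vehicle and 100% = reference agonist at the receptor; some compounds past the cut are filed as inactive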
# NPYLR7 ag max-min = second read-out of NPYLR7 ag, no call of its own (marks repeat the call); activation, %; measured here: Max-Min RFU normalised activation; some inactives read as strong as hits;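 span of the calcium signal over five minutes; 0% = vehicle and 100% = native peptide agonist; compound fluorescence can raise it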
# * marks the source's active call; other numbers are inactive results; & = joins results of further samples. Only part of the results is shown (hit frequency here may not be typical).
SMILES,NPYLR7 ag,NPYLR7 ag max-min
CCCC(C)CN1CCC(n2cc(CN(C)C)nn2)CC1 (configuration not stated),-3.6,-7.0
Cc1onc(-c2ccccc2)c1C(=O)Nc1ccccc1N1CCCC1=O,-2.9,-5.2
Cc1ccc(NC2CCCN(C(=O)c3ccc4c(c3)no[n+]4[O-])C2)cc1C (configuration not stated),0.6,-5.3
O=C(CSc1nc(=O)n(Cc2ccco2)c2c1CCCC2)N1CCN(c2ccccc2)CC1,5.5,3.3
O=S(=O)(c1ccc(Cl)cc1)N1CCC(Cc2ccc3c(c2)OCO3)CC1,1.3,-1.4
CCc1cc(OCc2ccc(C(N)=O)cc2)ccc1Cl,6.2,3.5
Cc1ccc(C)c(C(=O)CCC(=O)N2CCN(S(=O)(=O)c3c(C)noc3C)CC2)c1,10.8,8.5
N[C@@H]1CC[C@@H](NC(=O)C(=O)c2ccccc2)C1,-1.4,-3.8
COc1ccc(-c2ccc(C(C)N3CCOCC3)cc2)nn1 (configuration not stated),2.0,2.1
Cc1cc(C)cc(NC(=O)CSc2nc(=O)n(Cc3ccccn3)c3c2CCC3)c1,16.7,10.2
O=C1CN(c2ccc(Cl)cc2)C(=O)N1,3.1,2.6
O=C(Cc1csc(-c2ncccn2)n1)NCc1ccc(Cl)cc1Cl,0.8,7.6
CC1C(=O)N(c2ccc(F)cc2)CCN1C(=O)C1CCCC1 (configuration not stated),-2.1,0.4
COc1cn(CC(=O)NCc2ccc3c(c2)OCO3)c(CSc2nnc(C)s2)cc1=O,-6.9,-10.5
Cc1ccc2[nH]c(C(=O)N3CCC(N4CCCC4)CC3)cc2c1C,5.7&9.5,2.8&6.4

# Part of the list above in order of heavy-atom count, high to low:
SMILES,NPYLR7 ag,NPYLR7 ag max-min
COc1cn(CC(=O)NCc2ccc3c(c2)OCO3)c(CSc2nnc(C)s2)cc1=O,-6.9,-10.5
CCc1cc(OCc2ccc(C(N)=O)cc2)ccc1Cl,6.2,3.5
N[C@@H]1CC[C@@H](NC(=O)C(=O)c2ccccc2)C1,-1.4,-3.8

# (further entries)
SMILES,NPYLR7 ag,NPYLR7 ag max-min
CCc1ccccc1NC(=O)c1cc(-c2cccs2)nc2ccccc12,-1.6,-6.5
Cc1nn(CC(=O)NC2CCCC2)c(C)c1S(=O)(=O)N(C)C,-6.5,-7.1
NC(=O)CSc1c[nH]c2ccccc12,3.3,2.4
CSc1ncccc1C(=O)N1CCN(c2nccc(-c3cccs3)n2)CC1,22.7,25.7
N#CC1C(=N)Oc2n[nH]c(-c3cccc([N+](=O)[O-])c3)c2C1c1cccc(O)c1 (configuration not stated),-2.2,-7.7
O=C1CCCc2occ(C(=O)N3CCC(Oc4ccc(C(F)(F)F)cc4)CC3)c21,-1.2,6.1
O=S(=O)(c1ccccc1OC(F)(F)F)N1CCN(C2c3ccccc3CCc3ccccc32)CC1,5.6,4.0
COc1cc(C(=O)Oc2ccc3c(OC)c4ccoc4nc3c2OC)cc(OC)c1OC,5.5,3.9
CCC1CCCCN1Cc1nc2c(c(=O)n(C)c(=O)n2C)n1Cc1ccccc1 (configuration not stated),1.4,0.3
Cc1cn(CC(=O)N2CCN(c3ccc(O)cc3)CC2)c2ccccc12,0.3,-1.5
O=C(Cn1ccc2ccccc21)N1CCCC(Cn2ccnc2)C1 (configuration not stated),-3.2,-9.0
COc1ccc(S(=O)(=O)NC(C)C)cc1Br,-22.1,-23.2
O=[N+]([O-])c1cccc(NC2=NS(=O)(=O)c3ccccc32)c1,18.8,17.2
CC1(C)C2CCC1(CS(=O)(=O)Nc1ccc(OC(F)F)c(Cl)c1)C(=O)C2 (configuration not stated),5.3,3.5
Cc1noc(C)c1CNC(=O)c1nn(C)c(=O)c2ccccc12,0.9,0.0
CC(C)Cc1nnc2sc(/C=C/c3ccccc3)nn12,1.6,4.3
O=C(NCCNc1nc(-c2ccccc2Cl)nc2ccccc12)c1cccs1,7.3,18.1
Cc1nn(S(=O)(=O)N2CCCCC2)c(C)c1Cl,-4.2,-4.1
CCN1C(=S)NC(c2ccc(NC(=O)C34CC5CC(CC(C5)C3)C4)cc2)C(C(=O)OCC(C)C)=C1C (configuration not stated),20.7,18.6
CCOC(=O)c1c(CN2CCN(c3ccccc3)CC2)n(-c2ccccc2)c2cc(Br)c(OC)cc12,-4.1,-7.7
C#CCOCC(O)CN(Cc1cccc(OC)c1)Cc1ccco1 (configuration not stated),-6.2,7.5
O=C(c1coc(CN(CCc2c[nH]c3ccccc23)Cc2ccc(C(F)(F)F)cc2)n1)N1CCCC1,13.6,26.5
COCCn1cc(C(=O)N2CCN(C(=O)C3CCCC3)CC2)c2nn(-c3ccccc3)c(=O)c-2c1,-0.5,-0.8
Cc1cccc(-c2cnc(C)nc2C2CCCN(C(=O)c3ccc(N4CCCC4)cc3)C2)c1 (configuration not stated),15.2,2.4
CCCC(=O)N1CCCC(C(=O)NCc2ccnc(N(C)CC)c2)C1 (configuration not stated),-1.4,0.1
COc1cc(C)c(CSCC(=O)Nc2nccs2)cc1OC,4.0,0.0
CCCCC(O)(CCCC)C(=O)NNc1ccc(C)cc1C,14.0,4.1
Cc1nc(-c2ccccc2)sc1C(=O)NN=C1CCSCC1,10.0,8.7
Cc1ccc(-c2nnn3c2nc(NCc2ccccc2)c2ccccc23)cc1,-7.3,-7.7
CC(C)n1nnc2c(=O)oc3ccccc3c21,10.8,0.7
Cc1cccc(Cn2ncc(O)c(Cl)c2=O)c1,1.5,-0.5
COc1ccccc1OCC(=O)NC1CC(=O)N(Cc2ccccc2Cl)C1 (configuration not stated),2.8,2.8
CC(C(=O)NCc1ccccc1Cl)n1ncccc1=O (configuration not stated),-0.9,-1.9
Cc1c(Cl)cccc1NC(=O)N1CCN(c2cc(-n3cccn3)ncn2)CC1,-9.7,-11.7
COCCOC(=O)c1ccc(NC(=O)CN2C(=O)c3ccccc3C2=O)cc1,-3.3,-3.1
O=C(OC/C=C/c1ccccc1)C1CC(=O)N(c2ccccc2)C1 (configuration not stated),2.2,0.7
CC(c1nc(N)nc(N(C)C)n1)N1CCC2(CCCCC2)C1 (configuration not stated),-3.9,-4.5
CC(C)CC(NS(C)(=O)=O)C(=O)O (configuration not stated),0.8,0.5
O=C(NCCc1ccc2c(c1)OCCO2)NCc1ccccc1,0.0,18.4
O=C1CC(c2ccccc2O)Cc2nc(N3CCN(c4ccccn4)CC3)ncc21 (configuration not stated),13.8,13.4
O=S(=O)(NCc1ccccc1)Nc1ccc2c(c1)OCO2,-5.1,-5.1
Cn1nnnc1SCc1nc(N)nc(Nc2ccccc2)n1,1.8,-0.2
Cc1noc(C)c1S(=O)(=O)N1CCCN(c2cc(=O)n3ccccc3n2)CC1,1.0,1.1
COc1ccc(CN2CCCN(S(=O)(=O)c3ccc4c(c3)N(C)CC4)CC2)cc1,-0.7,-2.2
CCOC(=O)N1CCN(C(=O)Cn2nc(C)c3cnn(C(C)(C)C)c3c2=O)CC1,3.7,1.2

# Taken from above.
# Cn1nnnc1SCc1nc(N)nc(Nc2ccccc2)n1 | NPYLR7 ag max-min = -0.2
# O=C(NCCc1ccc2c(c1)OCCO2)NCc1ccccc1 | NPYLR7 ag max-min = 18.4
# COc1ccccc1OCC(=O)NC1CC(=O)N(Cc2ccccc2Cl)C1 (configuration not stated) | NPYLR7 ag max-min = 2.8
# CCOC(=O)N1CCN(C(=O)Cn2nc(C)c3cnn(C(C)(C)C)c3c2=O)CC1 | NPYLR7 ag max-min = 1.2
# CC(C)CC(NS(C)(=O)=O)C(=O)O (configuration not stated) | NPYLR7 ag max-min = 0.5
# O=C(OC/C=C/c1ccccc1)C1CC(=O)N(c2ccccc2)C1 (configuration not stated) | NPYLR7 ag max-min = 0.7
# Cc1c(Cl)cccc1NC(=O)N1CCN(c2cc(-n3cccn3)ncn2)CC1 | NPYLR7 ag = -9.7

# Following part.
SMILES,NPYLR7 ag,NPYLR7 ag max-min
O=C(c1ccc(Oc2ccccc2)o1)N1CCC2(CCOCC2)C1,-2.7,-3.1
CCC1C=CCN1C(=O)c1ccc(-c2ccn[nH]2)cc1 (configuration not stated),2.1,4.3
O=C(N/N=C\c1ccncc1)c1cc(-c2ccc(Cl)s2)[nH]n1,3.1,-1.8
CCN(CC)C(=O)CC[C@@H]1CNC(=O)[C@@H]2C[C@H](NC(=O)c3ccc(N(C)C)cc3)CN12,-6.0,-11.7
CCC(=O)N1CCCCC1C(=O)Nc1nnc(C2CCCCC2)s1 (configuration not stated),0.6,-2.3
CC(CN(C)C(C)C)C(=O)N1CCc2onc(-c3ccc4c(c3)OCO4)c2C1 (configuration not stated),7.6,-1.1
CCOCC(O)CN1CCC(OCC(C)C)CC1 (configuration not stated),0.3,-8.0
COc1ccc(-c2nnc(SCc3cccc(OC)c3)n2C2CCCCC2)cc1,22.6,20.7
CCN=c1scc(-c2ccc(Br)s2)n1N=CC1CCCCC1,-1.2,-1.2
c1ccc(COCCCc2cnc[nH]2)cc1,23.6,18.5
CCC(C)N(Cc1c(C)nn(-c2ccccc2)c1N1CCN(CC)CC1)C(=O)c1ccc(C(F)(F)F)cc1 (configuration not stated),-1.2,2.4
COc1ccccc1/C=C/c1nc2c(C)cccn2c1NC(C)(C)CC(C)(C)C,1.8,8.4
C#CC(=O)N1CCC(n2cnc3cc(C(F)(F)F)ccc32)CC1,-1.3,0.6
Cc1ccc(CCNC(=O)c2ccc(-n3nc(-c4ccc(Cl)c(Cl)c4)cc3N)cc2)cc1,-7.7,-10.1
CCOC(=O)N1CCC(NC(=O)c2cn(CCCc3ccccc3)nn2)CC1,6.6,1.8
CCN(CC)S(=O)(=O)c1ccc(NNS(=O)(=O)c2ccccc2Cl)nc1,9.6,9.0
FC(F)(F)c1nc2ccccc2nc1-c1ccccc1,4.9,6.5
Cc1nc(SCC(=O)c2ccccc2F)c2c3c(sc2n1)CCCC3,1.1,-5.9
Cn1cc(C(=O)O)c2[nH]c(=O)n(-c3ccc(Cl)cc3)c(=O)c21,-3.9,-3.8
COc1ccc(C(C)=O)cc1CN1CC(O)CC1C(N)=O (configuration not stated),7.7,6.0
OC[C@H]1O[C@@H](n2cnc3c(NCCc4ccccc4)ncnc32)C(O)[C@H]1O (some centres not stated),2.6,-17.1
Cc1c(-c2ccccc2)[nH]c(=O)[nH]c1=O,1.6,0.7
CC1(C)O[C@@H]2C[C@@](OCc3cccc(Cl)c3)(C(=O)NCC3CC3)CC(OCc3ccccc3F)[C@@H]2O1 (some centres not stated),24.9,19.9
COCC(=O)N(Cc1ccco1)Cc1cc(NC(=O)c2cccs2)ccc1N(C)C,-1.4,-2.3
O=[N+]([O-])c1ccc(NC(=S)N2CCn3cccc3C2c2cccnc2)cc1 (configuration not stated),-1.5,-3.9
Cc1ccc(C)c(OC(C)C(=O)NCc2ccoc2)c1 (configuration not stated),3.2,2.7
COc1ccc(C(=O)N(CC2CCC(=O)N2)C(C)C)o1 (configuration not stated),7.8,1.9
CC(=O)N(c1ccc(C)c(C)c1)c1nc(CCl)cs1,0.0,-2.5
COc1ccccc1-c1ccc2c(c1)C(C)(Cc1ccc(Cl)cc1)C(=O)N2 (configuration not stated),3.6,2.2
Cn1cc(C(=O)N2CCN(Cc3ccccc3)CC2)c2nn(-c3ccccc3)c(=O)c-2c1,5.2,2.9
CCOCCNC(=O)c1ccc(-n2nc(C(=O)OCC)cc2-c2ccc(Cl)cc2)cc1,4.3,7.0
CCCc1nc(C)cc(-c2ccc(F)c(CO)c2)n1,-4.3,-7.0
CCCN1CCC(CNC(=O)NC2CCN(C(=O)CC)C2)CC1 (configuration not stated),3.5,1.4
Nc1ccc(-c2nnc(-c3ccco3)o2)cc1,5.7,7.7
CN(C)c1ncnc2c1CCN(S(=O)(=O)c1cccc3nsnc13)C2,-0.3,-1.3
O=C(CCOC1CCOCC1)N1CCCc2cc(Cl)cc(F)c21,-0.5,-11.9
CC(=O)C1CC(C(=O)Nc2cccc(C#N)c2)=NN1c1ccccc1 (configuration not stated),-23.1,-26.8
COc1ccc(-c2cnc3c(c2)CN(C2CC2)C(=O)CCN3)cc1,22.4,17.4
CSCC(=O)Nc1cc(S(=O)(=O)N2CCCCC2)ccc1N(C)C,-2.3,-3.4
O=C(CCc1nc2ccccc2[nH]c1=O)OCc1cccc(C(=O)Oc2ccccc2)c1,8.2,6.6
Cc1ccccc1CNC(=O)NCC1CCN(C2CCN(C)CC2)C1 (configuration not stated),-1.6,-1.9
O=C(Nc1ccc(Cl)cc1)N1CCSC1c1cccc(C(F)(F)F)c1 (configuration not stated),2.8,9.2
Cc1ccc2nc(COCC(=O)N3CC(c4cccnc4)C3)[nH]c2c1,7.5,2.5
COCc1cc(CN2CCN(Cc3ccc(F)c(F)c3)C(CCO)C2)ccc1OC (configuration not stated),8.5,2.4
COc1ccc(NC(=O)C=Cc2ccc(C)s2)c(OC)c1,3.6,-0.2
COc1ccc(F)cc1C(=O)C1CCCN(Cc2nc3ccccc3n2C)C1 (configuration not stated),4.5,1.5
COc1ccccc1N1CCN(C2=NS(=O)(=O)c3ccccc32)CC1,-0.6,-1.7
COc1ccc([C@@H]2[C@@H](O)[C@H](O)[C@@H](C)N2C)cc1OC,2.0,1.8
NC(=O)c1ccc(S(=O)(=O)NCC2(N3CCCCC3)CCCCC2)cc1,1.4,0.0
CCc1ccc(S(=O)(=O)NCCOc2cc(N3CCCCC3)ncn2)s1,2.0,2.4
Cc1c(C(=O)Nc2cccc(Oc3ccccc3)c2)sc(=O)n1Cc1ccc(C(=O)N(C)C)cc1,15.9,6.3
Cc1cccc(N=Nc2c(O)[nH]c3ccc(Br)cc23)c1,0.8,-5.7
CC1CCN(CCNC(=O)c2cc(F)ccc2F)CC1,-4.8,-6.3
Cc1ccc(CN(Cc2ccc(F)cc2)C(=O)CN(Cc2ccco2)C(=O)Cc2ccccc2)s1,13.4,14.3

# Given with each value named: entries from further up.
> Cc1cccc(N=Nc2c(O)[nH]c3ccc(Br)cc23)c1
  NPYLR7 ag: 0.8
  NPYLR7 ag max-min: -5.7

> CC1CCN(CCNC(=O)c2cc(F)ccc2F)CC1
  NPYLR7 ag: -4.8
  NPYLR7 ag max-min: -6.3

> Cc1ccc(CN(Cc2ccc(F)cc2)C(=O)CN(Cc2ccco2)C(=O)Cc2ccccc2)s1
  NPYLR7 ag: 13.4
  NPYLR7 ag max-min: 14.3
